2A StopGo: lowers the luciferase signal of an FMDV 2A StopGo reporter | human cells with a luciferase reporter of 2A StopGo recoding; control for the full effect not named in the record | Potency, µM (titrated, usually from 57.9 µM), for the others: top-dose signal change, negative = less light | 410,000 tested, 1.2% active; active = well fitted falling curve with a large enough effect; inconclusive = small, poorly fitted or top-dose-only effect; inactive = no such curve, though single readings can be large or run the other way; tested in HEK293T cells; note: nearly all actives have a fitted effect of over 45% in size; luciferase light after 4 h
RE007 growth inh: less growth of the S. pombe RE007 Vpr strain. S. pombe RE007 Vpr strain, BacTiter-Glo ATP luminescence, 24 h; control for the full effect not named in the record. Potency, µM (titrated, usually from 92.2 µM), for the others: top-dose activity change, negative = less growth. 360,000 tested, 0.21% active; active = well fitted falling curve with a large enough effect; inconclusive = small, poorly fitted or top-dose-only effect; inactive = no such curve, though single readings can be large or run the other way;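 note: nearly all actives have a fitted effect of over 50% in size; the assay follows cell death caused by Vpr and the record does not say whether a fall means rescue or toxicity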
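Fission yeast RE007 carrying one integrated HIV-1 vpr copy, seeded at OD 0.01 in PMG+AL medium with 23 nL pinned compound. Grown 24 h at 30 degrees; viability read by BacTiter-Glo luminescence after 5 min.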
* hit, by the source's call; u = inconclusive; [ ] = remark or other dose. % is set by controls: 0 for no effect and ±100 for the full control effect; potency is the fitted concentration of half-maximal effect.

SMILES	2A StopGo	RE007 growth inh
CCNC(=O)c1cc2c(c(-c3cccc(-c4ccccc4F)c3)n1)[C@@H](CCO)N(C(=O)CC)C2	0%	-7%
Cc1cccc(C)c1NC(=O)C(c1ccccc1F)n1c(=O)c(-c2ccccc2)nc2ccccc21 (stereo not drawn)	-6%	2%
O=C(NCc1cccs1)C1C(=O)Nc2ccccc2C(=O)N1Cc1ccccc1 (stereo not drawn)	27%	0%
CC(=O)Nc1cc(-c2ccc(C(=O)N3CCOCC3)cc2)cn2c(-c3ccccc3)cnc12	-6%	-7%[18.4 µM]
CCOC(=O)[C@]12CCCC=C1N(Cc1ccccc1)C(=O)[C@H](CC(=O)N1CCCCCC1)C2	-6%	12%
CCOc1ccc(/C=N/NC(=O)c2ccncc2)cc1OC	-9%	14%
CC(Oc1ccccc1)C(=O)N1CCC2(CC1)Oc1ccc(F)cc1C(=O)C21CC(c2cccnc2)=NO1 (stereo not drawn)	-29%	15%
COc1ccc(CN2C[C@@H](CO)O[C@@H](n3cnc4c(NCc5ccc(F)cc5)ncnc43)C2)cc1	-21%	5%
CC1(C(=O)Nc2ccc3ccccc3c2)CCC(=O)N1C1CC1 (stereo not drawn)	7%	6%
C[C@@H]1CN([C@@H](C)CO)C(=O)CCCn2nncc2CO[C@H]1CN(C)C(=O)Nc1ccc(C(F)(F)F)cc1	-10%	10%
OCc1ccccc1-c1nc(NCC2CC2)nc2ccsc12	1%	-6%
O=C(NCC1CC1)C1Cc2c(-c3ccccc3Oc3ccccc3)ccnc2O1 (stereo not drawn)	-22%	-1%
COc1ccc(CN2C(=O)c3ccccc3C2c2nnnn2-c2ccc3c(c2)OCCO3)cc1 (stereo not drawn)	1%	-8%
Cc1ccc(Cc2c(-c3ccc(F)cc3)nc3c(Cl)cc(C(F)(F)F)cn23)cc1	-4%	9%
Cc1ccc(S(=O)(=O)N2[C@H](CC(=O)c3cccs3)OC[C@@H]2C(C)C)cc1	4%	1%
CSc1ccc(CN2CCC(C)(Oc3cccc(C#N)c3)C2)cc1 (stereo not drawn)	u	-17%
COc1ccc(CNC[C@H]2O[C@@H](n3ccc(=O)[nH]c3=O)[C@H](O)[C@@H]2O)cc1OC	-3%	39%
COc1ccc(-c2ccc3c(c2)CNCc2cnnn2-3)cc1	25%	-3%
O=C(C[C@@H]1CC[C@H](NS(=O)(=O)c2ccccc2F)[C@@H](CO)O1)NCCCN1CCOCC1	-14%	8%
COC(=O)C1CC2=C(CCCC2=O)N(Cc2ccccc2)C1=O (stereo not drawn)	-25%	-6%
CCCC1NC(=O)c2cc3ccccc3cc2-n2c1nc1cc(Cl)ccc1c2=O (stereo not drawn)	u	-23%
CCOC(=O)C1=CCN(S(=O)(=O)c2ccc(F)cc2)C1c1ccc(C)cc1 (stereo not drawn)	-31%	6%
CN(CC1CCCN(CCc2ccccc2F)C1)C(=O)c1cc2ccccc2o1 (stereo not drawn)	-18%	4%
COCCCN1C(=O)C(CC(=O)NCc2cccs2)CC(C(=O)N(C(C)C)C(C)C)=C1C (stereo not drawn)	-10%	-5%
COC(=O)[C@]12CCCCC=C1N(Cc1ccc(Cl)cc1Cl)C(=O)[C@H](CC(=O)N1CCCC1)C2	-17%	-7%
CCCCNC(=O)c1c(N)[nH]c(C(=O)c2ccccc2)c1-c1ccccn1	-21%	1%
C[C@@H]1CN([C@@H](C)CO)C(=O)CCCn2nncc2CO[C@H]1CN(C)Cc1ccc2c(c1)OCO2	-17%	-16%
Cc1ccc(S(=O)(=O)N2C[C@H]3C(=O)C[C@@H](c4ccccc4)N(S(=O)(=O)c4ccc(C)cc4)[C@H]3C[C@H]2c2ccc(Cl)cc2)cc1	-25%	7%
CC(=O)NC(c1ccccc1)c1nc(-c2cccc(C(=O)O)c2)cs1 (stereo not drawn)	38%[activator]	-1%
Cc1cccc(CN2[C@@H](CC(C)C)COCCS2(=O)=O)c1	-3%	-1%
COc1ccccc1NC(=O)N(C)C[C@H]1OCc2cnnn2CCCC(=O)N([C@H](C)CO)C[C@H]1C	-10%	-12%
O=C(NCc1cccs1)c1cccc2c(-c3ccc(F)c(F)c3)coc12	8%	0%
CCCNC(=O)C1(C)CCN(C(=O)c2ccccc2OC)C1 (stereo not drawn)	-23%	2%
COc1ccccc1C(=O)N1CCN(C(=O)c2oc3c(C)c(C)ccc3c2C)CC1	0%	16%
COCCNC(=O)C1(C)CCCN(Cc2ccc(OCc3ccccc3)cc2)C1 (stereo not drawn)	-14%	-19%
CCOC(=O)C1(C)CCCCCN1C(=O)c1ccc(SC(F)(F)F)cc1 (stereo not drawn)	-18%	-15%
O=Cc1cn(CCOc2ccc(F)cc2)c2ccccc12	-20%	-3%
Cc1ccc(S(=O)(=O)N(C)C[C@H]2Oc3cc(Br)ccc3S(=O)(=O)N([C@H](C)CO)C[C@H]2C)cc1	37%[activator]	-8%
CCCCCC(=O)N1C[C@@H](O)[C@H](n2cc(C3CC3)nn2)C[C@@H]1c1ccc(C)cc1	-9%	6%
NC(Cc1ccc(C(F)(F)F)cc1)c1csc(Nc2ccccn2)n1 (stereo not drawn)	-17%	-1%
C[C@@H]1CN([C@@H](C)CO)C(=O)CCCn2nncc2CO[C@H]1CN(C)Cc1ccc2cccnc2c1	-20%	-14%
CC(O)(c1cccnc1)c1nc(-c2ccc(S(C)(=O)=O)cc2)cs1 (stereo not drawn)	-27%	0%
Cn1c(=O)c(S(=O)C2CCCCC2)c(O)c2ccccc21 (stereo not drawn)	-9%	-5%
CCCOc1ccc(C2C(C(=O)c3ccco3)=C(O)C(=O)N2CCCn2ccnc2)cc1OC (stereo not drawn)	22%	-7%
CCC(=O)N1CCCC(C)(C(=O)Nc2nccc3ccccc23)C1 (stereo not drawn)	-11%	4%

Shown comma-delimited: part of the list above
SMILES,2A StopGo,RE007 growth inh
CCCCCC(=O)N1C[C@@H](O)[C@H](n2cc(C3CC3)nn2)C[C@@H]1c1ccc(C)cc1,-9%,6%
NC(Cc1ccc(C(F)(F)F)cc1)c1csc(Nc2ccccn2)n1 (stereo not drawn),-17%,-1%

The list continues:
SMILES	2A StopGo	RE007 growth inh
C[C@H]1CN([C@@H](C)CO)C(=O)c2c(c3ccccc3n2C)-c2ccccc2CO[C@H]1CN(C)Cc1cccc(F)c1	-21%	15%
Cc1ccc(S(=O)(=O)N2CCCCC2)cc1NC(=O)C1CCN(C(=O)OC(C)(C)C)CC1	u	8%
C[C@H](CO)N1C[C@H](C)[C@H](CN(C)S(=O)(=O)c2ccc(Cl)cc2)OCc2ccccc2-c2c(n(C)c3ccccc23)C1=O	-15%	13%
Cc1cccc(-c2nc(NCCN(C)C)c3ccccc3n2)c1	11%	-12%
CC1=C(C(=O)N2CCCCCC2)CC(CC(=O)NCCCCc2ccccc2)C(=O)N1Cc1ccccc1 (stereo not drawn)	-16%	3%
CCOC(=O)C1(C)CCCN(C(=O)c2ccccc2F)C1 (stereo not drawn)	-24%	3%
O=C1CCCCC(=O)[C@H](O)C[C@H](c2ccccc2)O1	-25%	9%
CCc1nc2ccc(C(=O)N(C)C(C)C)cn2c1N(CCC(C)C)CCN(C)C	7%	9%
CCOc1ccc2[nH]c(=O)c(CN(CCCN3CCOCC3)C(=O)Nc3ccc(F)cc3)cc2c1	-19%	-15%
O=C1NCN(c2ccccc2)C12CCN(C(c1ccccc1)c1nnnn1C1CCCC1)CC2 (stereo not drawn)	-6%	-2%
O=C(NCc1ccc(F)cc1)c1cc(C2CCCN(C(=O)CCCc3ccccc3)C2)on1 (stereo not drawn)	-25%	2%
COc1ccc(Cl)cc1Cn1c(C)c(C(=O)N(C)Cc2ccc(F)cc2)sc1=O	-4%	-9%[18.4 µM]
CC(=O)Oc1ccccc1Cn1c(C)c(C(=O)NCCC#N)sc1=O	0%	0%[18.4 µM]
CCc1nc2ccc(C(=O)N3CCN(C(C)=O)CC3)cn2c1N(CC)C(=O)NCCc1ccccc1	-5%	-14%
CCOC(=O)c1c(C)nsc1NC(=O)C1(C)CCN1C(=O)CC (stereo not drawn)	-6%	-3%[18.4 µM]
O=C(Nc1cccc(C(F)(F)F)c1)C1Cc2c(-c3ccco3)ccnc2O1 (stereo not drawn)	u	-6%[18.4 µM]
O=C(Cc1ccc(NC(=O)C2CCN(C(=O)c3ccccc3)CC2)cc1)Nc1cccc(C(=O)N2CCCCC2)c1	-13%	5%
COc1ccccc1CNc1nc(NCCN2CCNC2=O)c2sccc2n1	-13%	-11%
CN(C)c1cccc(CN2CCN(c3ccccc3)CC2)c1	-20%	-21%
CCc1nc2ccc(C(=O)NC3CCN(Cc4ccccc4)CC3)cn2c1N(C)Cc1cc2ccccc2s1	u	u
C[C@@H]1CN([C@H](C)CO)C(=O)CCCn2nncc2CO[C@H]1CN(C)S(=O)(=O)c1ccc2ccccc2c1	-3%	-2%
C#CCOCCOCCOCCNc1nc(N2CCN(C(=O)Cn3cc(CC(C)O)nn3)CC2)nc(N2CCN(C(=O)[C@H]([C@@H](C)CC)n3cc(CCCCN)nn3)CC2)n1 (stereo partly drawn)	-13%	-3%
CC(=O)N[C@H]1[C@H]([C@H](O)[C@H](O)CO)OC(C(=O)O)=C[C@@H]1O	-14%	11%[18.4 µM]
Cc1ccccc1CN1C(=O)CSCC1(C)C(=O)NC(C)C (stereo not drawn)	-7%	-10%
COc1cccc(-c2cc3nc(C)c(C)c(N4CCN(C(=O)c5ccoc5)CC4)n3n2)c1	0%	-14%
CC(C)[C@H]1COCCS(=O)(=O)N1Cc1ccccc1	0%	1%
O=C(Cc1ccc(NC(=O)C2CCN(C(=O)C3CCC3)CC2)cc1)Nc1cccc(C(=O)N2CCCC2)c1	-23%	-7%
C[C@H](CO)N1C[C@H](C)[C@H](CN(C)C(=O)Nc2ccnc(N3CCOCC3)c2)OCc2cnnn2CCCC1=O	-23%	4%
Cc1ccc(S(=O)(=O)Nc2ccc3c(c2)C(=O)N([C@@H](C)CO)C[C@@H](C)[C@@H](CN(C)S(=O)(=O)c2ccccc2)OCCCC[C@H](C)O3)cc1	-29%	-8%
Cc1cc(Cl)ccc1NC(=O)/N=C1/NC(=O)CS1	19%	-2%

Part of the list above in order of molar mass, high to low:
SMILES	2A StopGo	RE007 growth inh
C[C@H](CO)N1C[C@H](C)[C@H](CN(C)C(=O)Nc2ccnc(N3CCOCC3)c2)OCc2cnnn2CCCC1=O	-23%	4%
O=C(Cc1ccc(NC(=O)C2CCN(C(=O)C3CCC3)CC2)cc1)Nc1cccc(C(=O)N2CCCC2)c1	-23%	-7%
COC(=O)[C@]12CCCCC=C1N(Cc1ccc(Cl)cc1Cl)C(=O)[C@H](CC(=O)N1CCCC1)C2	-17%	-7%
CCOc1ccc2[nH]c(=O)c(CN(CCCN3CCOCC3)C(=O)Nc3ccc(F)cc3)cc2c1	-19%	-15%
O=C(NCC1CC1)C1Cc2c(-c3ccccc3Oc3ccccc3)ccnc2O1 (stereo not drawn)	-22%	-1%
CSc1ccc(CN2CCC(C)(Oc3cccc(C#N)c3)C2)cc1 (stereo not drawn)	u	-17%
COC(=O)C1CC2=C(CCCC2=O)N(Cc2ccccc2)C1=O (stereo not drawn)	-25%	-6%
OCc1ccccc1-c1nc(NCC2CC2)nc2ccsc12	1%	-6%
CCOC(=O)C1(C)CCCN(C(=O)c2ccccc2F)C1 (stereo not drawn)	-24%	3%
CC(=O)N[C@H]1[C@H]([C@H](O)[C@H](O)CO)OC(C(=O)O)=C[C@@H]1O	-14%	11%[18.4 µM]
O=Cc1cn(CCOc2ccc(F)cc2)c2ccccc12	-20%	-3%

(listing goes on)
SMILES	2A StopGo	RE007 growth inh
CC(C)CC1OC(C)Cc2[nH][nH]c(=O)c21 (stereo not drawn)	-22%	19%
COC(=O)[C@]1(Sc2ccc(C)cc2)CC(=O)N[C@@H]1c1ccccc1	1%	31%
Cc1cc(C)c(NC(=O)CN2CCN(S(=O)(=O)c3ccc4c(c3)OCCO4)CC2)c(C)c1	-11%	3%
Cc1ccc(NC(=O)CN2C(=O)NC3(CCCCC3C)C2=O)cc1S(=O)(=O)N1CCOCC1 (stereo not drawn)	0%	-4%
CCOC(=O)C1(C)CCCN1C(=O)c1cc(F)ccc1C (stereo not drawn)	-22%	-3%
O=C1CC(N2CCN(S(=O)(=O)c3ccccc3F)CC2)C(=O)N1c1ccccc1F (stereo not drawn)	-19%	13%
CCOC(=O)[C@]12CCC=C1N(Cc1ccc(Cl)cc1Cl)C(=O)[C@H](CC(=O)N1CCOCC1)C2	u	-23%
CCC(=O)Nc1ccc2c(c1)OC[C@@H](C)N(Cc1cccc(F)c1)C[C@@H](C)[C@@H](OC)CN(C)C2=O	-14%	-10%
O=C(NC(c1ccc2c(c1)OCO2)c1ccccn1)C1CCN(CCOc2ccc(Cl)cc2Cl)CC1 (stereo not drawn)	-17%	-19%
CC(C)CNC(=O)C1(C)CCCN1C(=O)Cc1cccc2ccccc12 (stereo not drawn)	-8%	1%[18.4 µM]
COc1ccc(NC(=O)c2cc(C3CCCCN3C(=O)C3CCCCC3)on2)c(C)c1 (stereo not drawn)	-14%	-2%
CC(C)CN1C(=O)CSCC1(C)C(=O)Nc1ccc2c(c1)OCCO2 (stereo not drawn)	-5%	3%
CS(=O)(=O)c1cccc(-c2ccc3nncn3c2)c1	1%	9%[18.4 µM]

Compound activity: PubChem, National Center for Advancing Translational Sciences (NCATS)

The list is partial, so the mix of outcomes need not match the whole.
